# Screening data: PubChem, Center for Chemical Genomics, University of Michigan
# CDC25B-CDK2 inh – primary biochemical HTRF screen for blockers of M-phase inducer phosphatase 2 binding to CDK2/cyclin A; P30305+P24941; HTRF CDC25B-CDK2/CyclinA binding, anti-His/anti-Flag; stronger effect = higher value; z-score (concentration not given with the values); actives 0.72% (n = 94,000);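 further: score is relative to mean and SD of negative controls; strong numbers were not always called active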
# TAR Tat displ – TAR RNA-Tat peptide displacers, HIV-1, primary screen, biochemical, FRET, FAM/TAMRA-labeled Tat; HIV-1 TAR RNA, Tat peptide displacement FRET; stronger effect = higher value; z-score (concentration not given with the values); actives 0.6% (n = 100,000);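 further: score is relative to mean and SD of negative controls; some compounds called inactive have numbers as strong as hits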
# Numbers without * were called inactive; nt = no result given.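 How the source made its calls: active means z-score from 3 up in half or more of its runs; inactive means the rest.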
SMILES,CDC25B-CDK2 inh,TAR Tat displ
O=C(COc1ccc(Br)cc1)Nc1ccc(-n2cnnn2)cc1,-0.52,2.1
CCCOc1ccc2c(C(F)(F)F)cc(=O)oc2c1,-1.4,nt
NC(=S)NNc1ccc(F)cc1,-1.5,nt
CCOCC(=O)Nc1cc(C)on1,0.16,0.27
CC(=O)Nc1ccc(C)cc1N=Cc1ccncc1,-1.8,nt
N/C(=N\O)c1ccc(Oc2c(Cl)cncc2Cl)cc1,-0.83,nt
O=C(CSCc1csc2ccccc12)NCc1ccc2c(c1)OCO2,-0.78,nt
O=C(Cn1nc(Cc2ccncc2)c2ccccc2c1=O)Nc1ccc(Cl)cn1,-2.1,1.2
CCCCN(C)S(=O)(=O)c1cc(Br)cc2c1N(C(=O)C1CC1)CC2,-0.5,nt
CCN1CCN(CCCn2c(=S)[nH]c3ncccc3c2=O)CC1,-1.7,nt
CCC(C)C1=CC(=Nc2c(C)n(C)n(-c3ccccc3)c2=O)C=C(C(C)CC)C1=O (configuration not stated),-0.74,nt
O=C(Nc1cccc(Cl)c1)c1cccc(-n2cnnc2)n1,nt,0.31
CC1=C(C)CC(C(=O)c2ccc(C)cc2)C(C(=O)O)C1 (configuration not stated),-1.3,0.39
CCc1cccc(-n2nnc(-c3nc(-c4ccccn4)no3)c2N)c1,nt,0.75
O=C(NCCC1=CCCCC1)Nc1ccc(OC(F)(F)F)cc1,-0.27,nt
FC(F)(F)c1csc(N/N=C/c2ccccc2Cl)n1,-2.1,nt
O=C(CCc1nnc2ccc(NCc3ccc(Cl)cc3)nn12)NCC1CCCO1 (configuration not stated),nt,0.17
CCN1CCC2(CC1)OC(=O)C(C)=C2C(=O)NCCCOC(C)C,nt,0.72
Cc1cccnc1NC1=NS(=O)(=O)c2ccccc21,-1.6,1.4
Cc1nc(-c2ccc(C)c(S(=O)(=O)NCc3ccccc3Cl)c2)cs1,nt,1.1
O=C(Nc1ccccc1F)c1cnc2sc3c(n2c1=O)CCCC3,nt,1.1
Cc1nn(C)c(C)c1CNC(=O)C1CCC(Cn2c(=O)[nH]c3ccsc3c2=O)CC1 (configuration not stated),-1.3,0.6
COc1ccc(-c2nnc(-c3ccccc3)o2)cc1S(=O)(=O)N1CCc2ccccc2C1,nt,0.08
CN1C(=O)C(Cc2ccccc2)NC1=S (configuration not stated),-0.15,nt
COc1ccccc1-c1nc(SCc2cc(=O)n3nc(-c4ccccc4)sc3n2)n[nH]1,nt,0.22
N#Cc1nn(-c2cccc(C(F)(F)F)c2)c(=O)[nH]c1=O,1.7,nt
CC(C)(C)c1ccc(-c2n[nH]c(=S)n2CC2CCCO2)cc1 (configuration not stated),0.3,nt
Cc1ccc(-c2nc3c[n+](CC(N)=O)ccn3c2Nc2c(C)cccc2C)o1,-0.01,-6.8
COc1ccc(C(=O)c2c(N)c(-c3nc(-c4ccccc4OC)cs3)c3ccccn23)cc1,-0.6,1.5
C=C1C2=CC(=O)O[C@@H](c3ccoc3)[C@]2(C)CCC1[C@@]1(C)C=CC(=O)C(C)(C)[C@@H]1CC(=O)OC (some centres not stated),nt,1.7
COc1cccc(-c2nc(-c3cccs3)c(-c3cccs3)[nH]2)c1,-1.6,nt
O=C1C2C(c3ccccc3)OC3(C(=O)c4ccccc4C3=O)C2C(=O)N1c1ccc(F)cc1 (configuration not stated),-0.79,-0.77
Cc1ccccc1-c1nc2sc3c(c2c(=O)o1)CCC3,-2.3,2.6
COc1ccc(OC)c(S(=O)(=O)Oc2ccc(C#N)cc2)c1,-0.01,nt
C=CCOC(=O)C1=C(C)NC2=C(C(=O)CC(C)(C)C2)C1c1cccc(OC)c1OC (configuration not stated),-0.06,0.14
Nc1c(-c2cccnc2)[nH]c2ccc(Cl)cc12,nt,-4.2
CC(C)(C)OC(=O)N1CCN(C(=O)Nc2ccc(C(F)(F)F)cc2)CC1,-1.7,nt
Cc1ccc(NC(=O)C2CC3CSCN3C23C(=O)Nc2ccccc23)cc1F (configuration not stated),nt,-0.52
CCSC(=O)NC1CCCCC1,-1.6,nt
Clc1ccc(CSc2ccc(-c3ccccn3)s2)cc1,-1.3,nt
Cc1nn(-c2ccccc2)c2c1C(c1cccnc1)C1=C(CC(c3ccc(O)cc3)CC1=O)N2 (configuration not stated),-2.1,2.8
Cc1ccc(C)n1CCN1CCN(C(=O)C2CCN(c3ccc(-c4cccs4)nn3)CC2)CC1,nt,0.21
COCc1cc(C)nc2sc3c(c12)NC(C)N(c1ccccc1)C3=O (configuration not stated),-2,7.4
CC12CN(C(C)(C)C)CC(C)(CN(C(C)(C)C)C1)C2=O,0.71,nt
COc1cccc(-c2nc(-c3cc4cccc(C)c4nc3OC)no2)c1,-9.3,0.28
CO[C@@]1(NC(=O)Cc2cccs2)C(=O)N2C(C(=O)O)=C(COC(N)=O)CS[C@@H]21,nt,-0.24
Cc1cc(C)nc(NC(=O)CSc2nnc3sc4ccccc4n23)n1,-0.12,nt
O=C(NCc1ccccc1)NCc1c(-n2cccc2)sc2c1CCCC2,-1.7,1.3
CC1CCCN(c2nc(NC3CCCCC3)nc(N)c2[N+](=O)[O-])C1 (configuration not stated),nt,0.43
CC1CCN(c2ccc(S(=O)(=O)N3CCC(C)CC3)cc2N)CC1,nt,2.8
CCC(=O)N1c2ccccc2CC1C(=O)NCCc1c(C)nn(CC)c1C (configuration not stated),nt,1.3
O=C1C=C(c2nc(-c3ccccc3Cl)cc(=O)o2)C(=O)c2ccccc21,-1.2,nt
CC(C)C[C@H](NS(=O)(=O)c1ccccc1)C(=O)O,-0.19,0.73
COc1ccc(-c2cc(=O)[nH]c3sc4c(=O)[nH]c(-c5ccccc5)nc4c23)cc1,-3.9,2.3
COc1cccc(-c2nc(SCc3cc(=O)n4nc(C)sc4n3)n[nH]2)c1,nt,0.35
CC(=O)N/C(=C\c1cnc(-c2ccccc2)[nH]1)C(=O)O,-2,nt
CCC1(C)Cc2ccccc2C(NC(=O)Nc2cccc(Br)c2)=C1C#N (configuration not stated),-1.7,0.35
Cc1cc(C)c(C(=O)CSc2nc3ncccc3[nH]2)cc1C,-11,0.71
O=C(Nc1ccc(F)cc1Cl)c1cc2ccc3cccnc3c2[nH]1,nt,1
CC1CCCCN1c1ncnc2c1oc1nc3c(cc12)COC(C)(C)C3 (configuration not stated),nt,0.26

# Quoted at random: four entries already listed
SMILES,CDC25B-CDK2 inh,TAR Tat displ
CCC(=O)N1c2ccccc2CC1C(=O)NCCc1c(C)nn(CC)c1C (configuration not stated),nt,1.3
CC1CCN(c2ccc(S(=O)(=O)N3CCC(C)CC3)cc2N)CC1,nt,2.8
CC1CCCCN1c1ncnc2c1oc1nc3c(cc12)COC(C)(C)C3 (configuration not stated),nt,0.26
O=C(Nc1ccc(F)cc1Cl)c1cc2ccc3cccnc3c2[nH]1,nt,1

# (continued)
SMILES,CDC25B-CDK2 inh,TAR Tat displ
O=C(CSc1nc2c(oc3ccccc32)c(=O)n1Cc1ccco1)Nc1ccc2c(c1)OCCO2,-0.87,0.95
CCOC(=O)c1c(SC)nn2c(-c3ccc(CC)cc3)ccnc12,1.7,-0.01
CCOc1cc(C(=O)N2N=C(C)CC2(O)C(F)(F)F)cc(OCC)c1OCC (configuration not stated),1.6,nt
O=C(NCC1CCCO1)c1c(NC(=O)c2nn(-c3ccc(F)cc3)ccc2=O)sc2c1CCC2 (configuration not stated),0.67,0.82
CSc1nc2c(sc3nc(C(C)C)c4c(c32)CC(C)(C)OC4)c(=O)[nH]1,-0.63,-1.4
CC1(C)CS(=O)(=O)N(c2ccc(C(=O)N3CCN(c4ncccn4)CC3)cc2)C1=O,-1.9,1.4
CC(CCc1ccco1)N(C)S(=O)(=O)c1ccc(-c2ccc(=O)[nH]n2)s1 (configuration not stated),nt,0.38
O=S(=O)(CCN1CCSCC1)c1ccccc1,-2,nt
OC(CN1CCOCC1)Cn1nnnc1-c1ccccc1 (configuration not stated),-0.99,1.2
COc1cc(Cl)c(NS(=O)(=O)c2ccc3c(c2)CCN3)c(OC)c1,nt,1.1
COc1ccc(Nc2nc(Cl)nc(Nc3ccc(OC)cc3)n2)cc1,-1.2,0.1
Cc1ccc2nc(C(F)(F)F)cc(OC(C)C)c2c1,-2.2,nt
C=CCN(C(=O)Cn1c(=O)oc2cc(S(=O)(=O)N3CCCC3)ccc21)c1ccccc1,-0.34,nt
O=C(N/N=C/c1cccs1)c1cccnc1,-0.27,nt
CN(C)CCN(C(=O)c1ccc2c(c1)OCCO2)c1nc2ccccc2s1,nt,0.92
CCOc1ccc(S(=O)(=O)NCc2ccco2)cc1,-0.42,0.36
COC(=O)c1cccc(Nc2c(-c3cc(Br)ccc3O)nc3nc[nH]n23)c1,nt,-0.83
COc1ccccc1/C=C/c1nn2c(Cn3cnc4ccccc43)nnc2s1,-0.2,0.69
CSc1ccc(-c2nc3c(c(SCC(N)=O)n2)Cc2cc(C)ccc2O3)cc1,-0.43,1.5
CCCN1C(=O)c2cc(C(=O)NCC)nn2CC1(C)C(=O)NC1CCCC1 (configuration not stated),nt,1.4
CCc1cc2c(N3CCC(C(=O)NC4CCCCC4)CC3)ncnc2s1,nt,0.65
Cn1c(=O)c2c(nc(Sc3ccc(NC(=O)c4cccs4)cc3)n2C)n(C)c1=O,-7.8,0.22
CN(C)c1ccc(CNCCSc2nnnn2-c2ccccc2)cc1,-0.79,-0.59
COc1ccc2c(c1)CCc1c-2n[nH]c1C(=O)NCCC1=CCCCC1,nt,1.4
O=C(Nc1ccc(Oc2ccccc2)cc1)c1cnc2sccn2c1=O,-1.8,nt
COc1ccc(Br)cc1C1CC(=O)N2CN(c3ccccc3)CSC2=C1C#N (configuration not stated),7.6*,-1.9
N#CC(=NCCC1=CCCCC1)C1=C(O)c2ccccc2C1=O,-1.8,nt
CCC(C(=O)NCc1ccco1)n1c2ccccc2c2nc(=O)cc(C)n21 (configuration not stated),-0.38,-1.6
COc1ccccc1NNC(=O)c1cc(C(C)(C)C)nn1Cc1ccccc1,-0.19,nt
COCCCN/C(SCc1cc(C(C)=O)ccc1OC)=C(\C#N)C(N)=O,-0.92,nt
COc1cccc(C2c3c(oc4ccc(F)cc4c3=O)C(=O)N2c2nccs2)c1 (configuration not stated),-1.6,-1.1
CN(C(=O)C1CCN(c2ncnc3c2nc2n3CCCCC2)CC1)c1ccccc1F,nt,1.7
Cc1ccc(Nc2nc(C3(C)CC(C(C)C)C(=O)O3)cs2)cc1 (configuration not stated),0.1,3
Cc1nc2n(n1)C(C(=O)Nc1ccc3c(c1)OCCO3)CC(=O)N2 (configuration not stated),-0.8,0.45
COC(=O)c1ccccc1SC(=O)c1cnc2n(c1=O)CCS2,-0.27,nt
Cc1ccc(C)c(CNC(=O)c2nc3c(nnn3CC3CCCO3)c(=O)[nH]2)c1 (configuration not stated),-1.7,1.8

# Single records (already shown).
# CC(=O)Nc1ccc(C)cc1N=Cc1ccncc1 is entered as CDC25B-CDK2 inh = -1.8; TAR Tat displ = nt
# CCSC(=O)NC1CCCCC1 is entered as CDC25B-CDK2 inh = -1.6; TAR Tat displ = nt
# CCc1cccc(-n2nnc(-c3nc(-c4ccccn4)no3)c2N)c1 is entered as CDC25B-CDK2 inh = nt; TAR Tat displ = 0.75

# More compounds:
SMILES,CDC25B-CDK2 inh,TAR Tat displ
COc1cnc(CSc2ccc(F)cc2)cc1OCC(=O)NCC1CCCO1 (configuration not stated),nt,1.3
C=CCn1c(-c2ccccc2Cl)nc2ccccc21,-1.6,-0.16
Cc1ccc(S(=O)(=O)/N=C2/C=C(Sc3nnc(-c4ccccc4)c(-c4ccccc4)n3)C(=O)c3ccccc32)cc1,0.07,nt
CCCCNc1oc(/C=C/c2ccc(OCC)cc2)nc1C#N,-2.4,-0.85
Cc1ccc(CNS(=O)(=O)c2cc(-c3ccc(=O)[nH]n3)ccc2C)cc1,-1.1,1.6
CS(=O)(=O)N1CCCc2ccc(NS(=O)(=O)c3ccc(Cl)cc3)cc21,nt,1.2
O=C(Oc1ccccc1Cl)c1cc(-c2ccc3c(c2)OCCO3)on1,-0.6,0.19
CN(C)CCNC(=O)C1CCCN(c2nn3c(=O)c4c(nc3s2)CCCC4)C1 (configuration not stated),nt,1.5
COc1ccc(S(N)(=O)=O)cc1-c1nnc2c3ccccc3c(C)nn12,-0.13,0.71
COC(=O)C(C)Sc1nnc(CSc2ncccn2)n1-c1ccc(F)cc1 (configuration not stated),-0.36,-0.6
COc1cccc(NS(=O)(=O)c2cn(C)cn2)c1,nt,1.1
CC1(C(=O)O)NCCc2c1[nH]c1ccccc21 (configuration not stated),10*,-2.2
COc1ccc(-c2noc(-c3nnn(-c4ccccc4OC)c3N)n2)cc1,nt,-0.03
COC(=O)c1sc(-c2ccc(Cl)cc2)cc1NC(=O)c1cc(C)nn1C,-1.5,nt
CC1CCN(CC2CCN(S(=O)(=O)c3cccc4cccnc34)CC2)CC1,nt,1.5
NC(=O)c1ccccc1OCCCN1CCN(c2ccccc2)CC1,-2.6,nt
Cc1nc2ncnn2c(C)c1CCC(=O)Nc1ccc(Br)cc1F,1.3,nt
Oc1ccc(CCc2n[nH]c(=S)n2CCc2ccccc2)cc1,-1.6,nt
Cc1cc(C)cc(Oc2c(C)oc3c(CN4CCCCC4)c(O)ccc3c2=O)c1,-1.9,0.24
CCN1C(=O)C2(c3ccccc31)c1c(oc3ccccc3c1=O)C(=O)N2CCCOC (configuration not stated),-1.7,1.9
CCCN1CCN(C(=O)CCCn2nc(C)c3sc4ccccc4c3c2=O)CC1,-1.9,3.1
